Source: PubChem (National Center for Advancing Translational Sciences (NCATS))
CtBP-E1A blk: blocks the CtBP interaction with E1A; AlphaScreen GST-E1A/His-CtBP binding, 1536-well; hits give low values; control for the full effect not named in the record; 340,000 compounds, 0.49% hits; AID 651724; activity change, % (concentration not given with the values); in the data active means activity change below about -65%; inconclusive means about -30% to -65%; inactive means above about -30%; also: % is scaled to controls: 0 for no effect and ±100 for the full control effect
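GST-E1A and His-tagged CtBP (125 nM each as 5X stock) were preincubated with pin-transferred compound for 2 h at 37 °C in the dark, then glutathione donor and nickel acceptor beads were added for 1 h before AlphaScreen reading.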
PINK1 expr mod: PINK1 expression modulation. PINK1 immunofluorescence, high-content cytometry, 24 h. Potency, µM (highest dose often 76.6 µM), for the others: top-dose activation (PINK1 increase), usual class: activators. 410,000 compounds, 0.2% hits; active = well fitted activation curve with a large enough effect; inconclusive = small, poorly fitted or top-dose-only effect; inactive = flat fitted curve, though single readings scatter; cell line not stated here;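 also: potency is read from the fitted curve at half-maximal effect; % of control where 0% means no effect; nearly all actives have a fitted effect of over 65% in size; a mitochondrial uncoupler was the plate control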
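Decision-based qHTS: stable cells, 24 h exposure to five compound concentrations, CCCP as control. Fixed cells stained for PINK1 plus nuclear, mitochondrial and cell markers, cytometer read.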
Six1-Eya2 blk: inhibitors of human Six1/Eya2 interaction | AlphaScreen GST-Six1/His-Eya2 binding, biochemical; hits give low values; control for the full effect not named in the record | activity change, % (test concentration not listed) | 360,000 compounds, 0.56% hits; in the data active = activity change below about -65%; inconclusive = about -30% to -65%; inactive = above about -30%; also: % is scaled to controls: 0 for no effect and ±100 for the full control effect
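GST-Six1 + His-Eya2 (5X stock: 250/500 nM); Tris pH 8.0, 300 mM NaCl, 0.05% BSA, 0.02% Tween 20; GSH donor/Ni acceptor beads; 1 h 37 °C dark; AlphaScreen readout.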
D2 agonist: human D2 receptor agonism in beta-arrestin assay. P14416. DiscoveRx PathHunter D2 beta-arrestin, luminescence, 90 min; 100% = 57 uM dopamine signal. activation, % (test concentration not listed). 360,000 compounds, 0.084% hits; in the data active = activation above about 40%; inconclusive = about 15% to 40%; inactive = below about 15%; also: compound concentration not given in the record; the text of the record calls up to 30% inactive
Target sequence (P14416 whole entry, looked up): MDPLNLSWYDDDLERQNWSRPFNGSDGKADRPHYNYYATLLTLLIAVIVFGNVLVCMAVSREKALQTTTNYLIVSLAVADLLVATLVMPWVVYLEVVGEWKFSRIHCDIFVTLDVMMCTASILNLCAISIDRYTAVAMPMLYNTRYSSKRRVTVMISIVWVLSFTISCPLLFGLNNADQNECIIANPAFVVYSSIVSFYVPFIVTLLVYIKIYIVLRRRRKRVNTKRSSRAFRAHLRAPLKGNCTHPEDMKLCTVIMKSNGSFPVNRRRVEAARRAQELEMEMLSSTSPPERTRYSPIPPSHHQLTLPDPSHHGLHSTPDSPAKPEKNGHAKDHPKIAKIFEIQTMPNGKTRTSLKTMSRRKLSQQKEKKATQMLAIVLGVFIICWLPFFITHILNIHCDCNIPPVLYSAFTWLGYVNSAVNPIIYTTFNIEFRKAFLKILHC
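DiscoveRx PathHunter D2 beta-arrestin cells (2,100/well) attached overnight, then compound-stimulated 90 min at 37 C in HBSS/10 mM HEPES/0.1% Tween-20 buffer; beta-galactosidase complementation read by luminescence after 1 h at ambient temperature. Dopamine 57 uM final (EC100) as control.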
TRPML1 agonist: human mucolipin-1 channel agonism | AID 624414 | activation, % (concentration not given with the values) | TRPML1-expressing cells, Ca2+ dye fluorescence, FDSS; host cell line not named in the record; reference of the full effect not given here | 410,000 compounds, 0.12% hits | Q9GZU1; in the data active = activation above about 50%; inconclusive = about 30% to 50%; inactive = below about 30%; also: 0% is about no effect; the text of the record puts the active cut at 80%
Target sequence (Q9GZU1 whole entry, looked up): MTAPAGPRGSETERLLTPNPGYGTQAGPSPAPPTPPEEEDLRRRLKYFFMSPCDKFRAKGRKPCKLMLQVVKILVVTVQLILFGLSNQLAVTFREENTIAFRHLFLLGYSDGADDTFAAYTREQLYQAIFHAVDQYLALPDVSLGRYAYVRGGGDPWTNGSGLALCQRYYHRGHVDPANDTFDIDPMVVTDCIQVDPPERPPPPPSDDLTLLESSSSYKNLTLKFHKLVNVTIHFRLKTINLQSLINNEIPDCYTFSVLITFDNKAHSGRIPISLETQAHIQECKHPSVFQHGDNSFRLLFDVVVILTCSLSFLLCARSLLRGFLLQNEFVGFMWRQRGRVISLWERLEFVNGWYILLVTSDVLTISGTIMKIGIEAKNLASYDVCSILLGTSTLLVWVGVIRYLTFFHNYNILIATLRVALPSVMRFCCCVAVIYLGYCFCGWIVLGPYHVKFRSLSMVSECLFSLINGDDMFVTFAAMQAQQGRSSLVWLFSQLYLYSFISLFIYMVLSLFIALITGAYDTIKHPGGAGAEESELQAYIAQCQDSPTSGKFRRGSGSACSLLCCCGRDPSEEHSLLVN
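Kinetic FDSS Ca2+ read in Tet-induced TRPML1-DL cells (ABD Ca8 dye plus quencher, 45-90 min RT loading): baseline, then compound, then 110 s agonist window; EC80 agonist 54-4 at 4uM final added afterwards for a 110 s antagonist window.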
D2 PAM: human D2 receptor positive allosteric modulation; P14416; DiscoveRx D2 beta-arrestin cells, luminescence, 90 min; 100% = 57 uM dopamine signal; potentiation, % (test concentration not listed); 360,000 compounds, 0.23% hits; AID 624464; active = potentiation of 50% or more; inconclusive = 30% to 50%; inactive = 30% or less;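 also: compound concentration not given in the record; tested on top of an EC20 dose of dopamine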
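PathHunter beta-arrestin assay in DiscoveRx D2 cells. Compounds were added with an EC20 of dopamine (50 nM final) for 90 min at 37 deg C. Luminescence was read 1 h after detection reagent, with 57 uM dopamine as the EC100 control.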
An asterisk follows results filed as active.

What do the screens show for `O=C(CN1C(=O)NC2(CCCCCCC2)C1=O)NC1CCCc2ccccc21` (stereo not drawn)?
CtBP-E1A blk: 5; PINK1 expr mod: -1.0%; Six1-Eya2 blk: 8; D2 agonist: 1.2; TRPML1 agonist: 0.7; D2 PAM: 2

What do the screens show for `O=c1c2c(-c3cccc([N+](=O)[O-])c3)ccnc2[nH]n1-c1ccccc1`?
CtBP-E1A blk: -8; PINK1 expr mod: -0.2%; Six1-Eya2 blk: -5; D2 agonist: 3.0; TRPML1 agonist: 1.5; D2 PAM: -10

Results for Cc1cc(OCc2nnc(SCC(=O)OC3CCCCC3)o2)ccc1Cl ?
CtBP-E1A blk: 2; PINK1 expr mod: -3.3%; Six1-Eya2 blk: -1; D2 agonist: -2.3; TRPML1 agonist: 1.3; D2 PAM: -13

Results for CN(Cc1ccc(F)cc1)C(=O)C(c1ccccc1)c1ccccc1 ?
CtBP-E1A blk: 10; PINK1 expr mod: 0.6%; Six1-Eya2 blk: 5; D2 agonist: -0.7; TRPML1 agonist: 0.8; D2 PAM: 1

What do the screens show for `O=C(c1ccc2c3c(cccc13)CC2)C1CCCN(C(=O)c2cccnc2)C1` (stereo not drawn)?
PINK1 expr mod: 1.8%; Six1-Eya2 blk: 2; D2 agonist: -2.9; TRPML1 agonist: 0.5; D2 PAM: -6

How did O=C1NNC(c2ccccc2)=N/C1=C\c1ccco1 do in these assays?
CtBP-E1A blk: -8; PINK1 expr mod: 3.2%; Six1-Eya2 blk: -14; D2 agonist: -3.7; TRPML1 agonist: -0.4; D2 PAM: -7

How did O=C(Nc1ccccc1)N1CC=C(c2ccc(F)cc2)CC1 do in these assays?
CtBP-E1A blk: -4; PINK1 expr mod: -0.5%; Six1-Eya2 blk: 3; D2 agonist: -1.6; TRPML1 agonist: 0.8; D2 PAM: -9

Results for COc1ccccc1C(O)Cc1nc2ccccc2n1C (stereo not drawn) ?
CtBP-E1A blk: 4; PINK1 expr mod: -1.2%; Six1-Eya2 blk: 1; D2 agonist: 0.3; TRPML1 agonist: 0.1; D2 PAM: -15

Results for CSc1ccc(CN(C)C(=O)c2ccc(S(=O)(=O)Nc3c(C)n(C)n(-c4ccccc4)c3=O)cc2)cc1 ?
CtBP-E1A blk: -4; PINK1 expr mod: 1.5%; Six1-Eya2 blk: -1; D2 agonist: 2.5; TRPML1 agonist: -0.8; D2 PAM: 3

How did COc1ccc(/C(O)=C2/C(=O)C(=O)N(CCN(C)C)C2c2ccccc2)cc1Cl (stereo not drawn) do in these assays?
CtBP-E1A blk: 8; PINK1 expr mod: 0.5%; Six1-Eya2 blk: -2; D2 agonist: -2.8; TRPML1 agonist: -0.5; D2 PAM: -12

For convenience, part of the list above.
Results for CSc1ccc(CN(C)C(=O)c2ccc(S(=O)(=O)Nc3c(C)n(C)n(-c4ccccc4)c3=O)cc2)cc1 ?
CtBP-E1A blk: -4; PINK1 expr mod: 1.5%; Six1-Eya2 blk: -1; D2 agonist: 2.5; TRPML1 agonist: -0.8; D2 PAM: 3

How did COc1ccc(/C(O)=C2/C(=O)C(=O)N(CCN(C)C)C2c2ccccc2)cc1Cl (stereo not drawn) do in these assays?
CtBP-E1A blk: 8; PINK1 expr mod: 0.5%; Six1-Eya2 blk: -2; D2 agonist: -2.8; TRPML1 agonist: -0.5; D2 PAM: -12

The listing continues:
Results for CC(=O)N/C(=C/c1ccc2c(c1)OCO2)C(=O)O ?
PINK1 expr mod: 3.6%; Six1-Eya2 blk: 4; D2 agonist: 12; TRPML1 agonist: 0.6; D2 PAM: 3

Results for CC1=CC=CC2=NC(=O)CC(C)(C(=O)N(CC(=O)NC3CCCC3)c3ccc(F)cc3)N12 (stereo not drawn) ?
CtBP-E1A blk: 10; PINK1 expr mod: 1.0%; Six1-Eya2 blk: 2; D2 agonist: -0.5; TRPML1 agonist: 0.6; D2 PAM: 2

What do the screens show for `CCOC(=O)N1CCC(NC(=O)c2ccc3c(c2)ncn3C2CCCC2)CC1`?
CtBP-E1A blk: -9; PINK1 expr mod: -2.3%; Six1-Eya2 blk: 3; D2 agonist: 0.3; TRPML1 agonist: 1.2; D2 PAM: -5

How did OCCCNC(=S)NC1CCCC1 do in these assays?
CtBP-E1A blk: 2; PINK1 expr mod: -0.1%; Six1-Eya2 blk: 7; D2 agonist: -2.2; TRPML1 agonist: -0.2; D2 PAM: -1

How did CCN(CC)CCN(C(=O)CN1C(=O)CCC1=O)c1nc2cc3c(cc2s1)OCO3 do in these assays?
CtBP-E1A blk: 2; PINK1 expr mod: 0.5%; Six1-Eya2 blk: 4; D2 agonist: -2.7; TRPML1 agonist: -0.6; D2 PAM: -19

How did OCCN1CCN(CCO)C1=S do in these assays?
CtBP-E1A blk: 3; PINK1 expr mod: -0.7%; Six1-Eya2 blk: 0; D2 agonist: -3.5; TRPML1 agonist: -0.3; D2 PAM: -6

How did COc1ccc(N2CCN(C(c3nnnn3CCc3ccccc3)C(C)C)CC2)cc1 (stereo not drawn) do in these assays?
CtBP-E1A blk: -9; PINK1 expr mod: 0.6%; Six1-Eya2 blk: -20; D2 agonist: -1.6; TRPML1 agonist: 3.2; D2 PAM: -2

How did Cc1ccc(S(=O)(=O)N(CC(=O)NCc2cccnc2)C2CCCCC2)cc1 do in these assays?
CtBP-E1A blk: 5; PINK1 expr mod: 0.1%; Six1-Eya2 blk: 2; D2 agonist: 0.6; TRPML1 agonist: -0.5; D2 PAM: -6

How did Cc1ccc(OCC(=O)NNC(=O)Nc2ccc(Cl)cc2)c(Br)c1 do in these assays?
CtBP-E1A blk: 11; PINK1 expr mod: 12%; Six1-Eya2 blk: -6; D2 agonist: 2.1; TRPML1 agonist: 5.8; D2 PAM: -6

How did COc1ccccc1CN(CC(=O)NCc1ccc2c(c1)OCO2)C(=O)c1csnn1 do in these assays?
CtBP-E1A blk: -1; PINK1 expr mod: -1.1%; Six1-Eya2 blk: 4; D2 agonist: 6.6; TRPML1 agonist: -0.3; D2 PAM: -4

Of the compounds above, 2 have an aryl thioether with sulfur outside any ring.
Results for Cc1cc(OCc2nnc(SCC(=O)OC3CCCCC3)o2)ccc1Cl ?
CtBP-E1A blk: 2; PINK1 expr mod: -3.3%; Six1-Eya2 blk: -1; D2 agonist: -2.3; TRPML1 agonist: 1.3; D2 PAM: -13

Results for CSc1ccc(CN(C)C(=O)c2ccc(S(=O)(=O)Nc3c(C)n(C)n(-c4ccccc4)c3=O)cc2)cc1 ?
CtBP-E1A blk: -4; PINK1 expr mod: 1.5%; Six1-Eya2 blk: -1; D2 agonist: 2.5; TRPML1 agonist: -0.8; D2 PAM: 3

Next structures.
What do the screens show for `CCOc1ccc(NC(=NCc2ccc3c(c2)OCO3)SC2CC(=O)N(c3ccc(OCC)cc3)C2=O)cc1` (stereo not drawn)?
CtBP-E1A blk: -12; PINK1 expr mod: 3.6%; Six1-Eya2 blk: -2; D2 agonist: -2.2; TRPML1 agonist: 1.4; D2 PAM: -5

How did CC1(C(=O)NS(=O)(=O)Cc2ccccc2C(F)(F)F)CCN1C(=O)c1cccc(F)c1 (stereo not drawn) do in these assays?
CtBP-E1A blk: 3; PINK1 expr mod: 0.0%; Six1-Eya2 blk: 13; D2 agonist: -4.4; TRPML1 agonist: 0.1; D2 PAM: -1

What do the screens show for `Cc1nnc(SCC(=O)NCc2ccccc2)n1-c1ccccc1`?
CtBP-E1A blk: -4; PINK1 expr mod: -1.8%; Six1-Eya2 blk: 2; D2 agonist: -2.2; TRPML1 agonist: -0.4; D2 PAM: -14

Results for C/C(=N\NC(=O)c1ccc(CSc2nc(C)cc(C)n2)cc1)c1ccco1 ?
CtBP-E1A blk: -4; PINK1 expr mod: -0.4%; Six1-Eya2 blk: 0; D2 agonist: -2.7; TRPML1 agonist: -0.4; D2 PAM: -4

How did Cc1ccc(C(=O)N2CCN(C(=O)c3ccc(C)cc3)C2)cc1 do in these assays?
CtBP-E1A blk: 2; PINK1 expr mod: -1.1%; Six1-Eya2 blk: 4; D2 agonist: 1.7; TRPML1 agonist: -0.3; D2 PAM: -2

How did CCN1C(=O)[C@H]2[C@@H](c3ccccc3)N[C@]3(CCCN(Cc4ccc(C)cc4)C3=O)[C@H]2C1=O do in these assays?
CtBP-E1A blk: 1; PINK1 expr mod: 0.4%; Six1-Eya2 blk: 1; D2 agonist: -2.8

How did C=C1C(=O)[C@]23C[C@H]1CCC2[C@@]1(C)C(C[C@@H]3O)[C@](C)(C(=O)O)CC[C@@H]1O (stereo partly drawn) do in these assays?
CtBP-E1A blk: -17; PINK1 expr mod: 4.4%; Six1-Eya2 blk: 18; D2 agonist: -3.9; TRPML1 agonist: 1.1; D2 PAM: -7

Results for CSc1ccc(CN(C)C(=O)CNC(=O)CNS(=O)(=O)c2ccc(C)c(C)c2)cc1 ?
CtBP-E1A blk: 7; PINK1 expr mod: 1.5%; Six1-Eya2 blk: -6; D2 agonist: 7.8; TRPML1 agonist: -0.3; D2 PAM: -6

What do the screens show for `Cc1ccc(CNC(=O)Cc2ccc(NC3=NC4CS(=O)(=O)CC4S3)cc2)cc1` (stereo not drawn)?
CtBP-E1A blk: 3; PINK1 expr mod: -1.1%; Six1-Eya2 blk: -1; D2 agonist: -0.5; TRPML1 agonist: 0.0; D2 PAM: -4

How did Cc1ccc(CNC(=O)CCNS(=O)(=O)c2ccc(Br)s2)cc1 do in these assays?
CtBP-E1A blk: -5; PINK1 expr mod: -2.3%; Six1-Eya2 blk: -2; D2 agonist: 7.6; TRPML1 agonist: 1.8; D2 PAM: 0

What do the screens show for `CN(C)C(CNC(=O)CSc1nc2ccccc2c(=O)n1Cc1ccco1)c1ccccc1` (stereo not drawn)?
CtBP-E1A blk: 2; PINK1 expr mod: 1.0%; Six1-Eya2 blk: -4; D2 agonist: -7.0; TRPML1 agonist: -1.0; D2 PAM: 7

Results for Cc1cc(C(=O)N2CCCC(C(=O)c3cc(F)ccc3F)C2)c(C)o1 (stereo not drawn) ?
CtBP-E1A blk: -5; PINK1 expr mod: 0.0%; Six1-Eya2 blk: 27; D2 agonist: -1.6; TRPML1 agonist: 0.5; D2 PAM: -8

Results for CC(=O)Nc1nnc(-c2c(-c3c(Cl)cccc3Cl)noc2C)o1 ?
CtBP-E1A blk: -27; PINK1 expr mod: -1.1%; Six1-Eya2 blk: -25; D2 agonist: -3.3; TRPML1 agonist: 1.4; D2 PAM: -3

How did O=C(Cn1ncc2ccccc21)N1CCc2ccccc21 do in these assays?
CtBP-E1A blk: -22; PINK1 expr mod: 3.4%; Six1-Eya2 blk: -9; D2 agonist: -4.6; TRPML1 agonist: 0.4; D2 PAM: -36

What do the screens show for `CCOC(=O)N1CCN(CCC(=O)Nc2ccc(F)c(F)c2)CC1`?
CtBP-E1A blk: 8; PINK1 expr mod: -0.3%; Six1-Eya2 blk: 2; D2 agonist: 1.8; TRPML1 agonist: 0.3; D2 PAM: -11

Results for Cc1ccc(/C=C/C(=O)N2CCCC(C(N)=O)C2)o1 (stereo not drawn) ?
CtBP-E1A blk: 7; PINK1 expr mod: 1.4%; Six1-Eya2 blk: 17; D2 agonist: 1.3; TRPML1 agonist: 0.5; D2 PAM: -6

How did CC(C)(C)c1ccc(C(=O)NNC(=S)NCC2CCCO2)cc1 (stereo not drawn) do in these assays?
CtBP-E1A blk: -4; PINK1 expr mod: 2.4%; Six1-Eya2 blk: 0; D2 agonist: -5.3; TRPML1 agonist: -0.2; D2 PAM: -20
